Autofluor counter: counter-screen for toxin protease inhibitors: compound fluorescence. AID 624483. 360,000 compounds, 3.1% hits. compound autofluorescence counterscreen, microsphere flow cytometry; active compounds read high. fluorescence intensity (no concentration beside the values);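 active means at least 3 SD above the mean of all compounds, about 16000 in these data; inconclusive means too few beads counted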;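 further: 100 nL of 1 mM stock went into each well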
BJeLR viability: BJeLR cell viability loss. BJeLR (HRASV12) viability, CellTiter-Glo ATP luminescence, 48 h; reference of the scale not given here. inhibition, % (no concentration beside the values). 300,000 compounds, 0.17% hits. AID 1554;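 active means replicate mean above 50%; inconclusive means above 50% but judged a plate artefact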;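 further: 50 nL library stock added to about 25 µL; numbers are from one replicate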
Sa ugtP lethal: kills S. aureus RN4220 lacking UgtP | S. aureus RN4220 ugtP deletion, OD600 growth, 16 h; some inactives read as strong as hits | 330,000 compounds, 0.54% hits | AID 1259309 | growth inhibition, % (no concentration beside the values);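 active means z-score under -3 and OD600 up to 0.15 on both plates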;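 further: plate controls were untreated wells for no effect and antibiotic for full effect; wells of about 80 µL received 100 nL stock; the first replicate is given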
Mtb hypoxia inh: reduces hypoxia-regulated biosensor signal in M. tuberculosis; M. tuberculosis hypoxia-regulated fluorescent reporter, fluorescence; 300,000 compounds, 0.1% hits; fluorescence inhibition, % (concentration not given with the values); AID 1159583;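 active means 35 to 45% if threefold the growth effect, above 45% if 1.5-fold the growth effect; inactive means the rest, general growth blockers included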;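 further: wells of about 50 µL received 100 nL stock; 0% = vehicle wells and 100% = reference inhibitor wells; whole bacteria with a GFP reporter of the hypoxia response; strong numbers were not always called active; many hits fall short of the cut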
PrP 5UTR inh: suppresses PrP 5' UTR mRNA reporter expression. cell-based PrP 5' UTR mRNA reporter, plate reader. inhibition, % (test concentration not listed). 340,000 compounds, 0.35% hits;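 active means every replicate at 50% or more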;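 further: 0 = median of the neutral control wells; tested in H4 reporter cells; numbers are from one replicate; inactives centre near -14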
RN4220 kill: S. aureus RN4220 growth inhibition. OD600, 16 h. inhibition, % (test concentration not listed). 330,000 compounds, 0.33% hits;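 active means z-score of -3 or lower and OD600 up to 0.18 on both plates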;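 further: plate controls were untreated cells for no effect and reference antibiotic for full effect; stock transfer was 100 nL into about 80 µL; one replicate is shown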
Mtb hypoxia inh growth: second read-out of Mtb hypoxia inh, no call of its own (marks repeat the call); growth inhibition, %; measured here: M. tuberculosis growth (absorbance);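 0% = vehicle and 100% = reference antibiotic; read after six days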
* marks the source's active call; other numbers are inactive results; ? = inconclusive; . = not tested or not shown.

SMILES,BJeLR viability,Mtb hypoxia inh,Mtb hypoxia inh growth,Sa ugtP lethal,RN4220 kill,PrP 5UTR inh,Autofluor counter
Cc1nc2ccccc2c2oc(C(=O)NCc3ccc4c(c3)OCO4)cc12,1,2,4,14,24,-4,6258
Cc1cc(Cl)ccc1OCCCC(N)=O,-7,4,3,-2,5.2,10,3954
Cc1ccc(NC(=O)CCC(=O)NNC(=O)c2ccccc2Cl)c(C)c1,-18,-9,-9,3,3.5,-8,4278
CCN(c1cccc(C)c1)S(=O)(=O)c1cc2c3c(c1)CCC(=O)N3CCC2,1,8,1,2,9.1,5,?
CC(NC(=O)COC(=O)c1ccccc1Nc1ccccc1)c1ccccc1 (stereo not drawn),16,9,1,9,-8.8,-3,8500
O=C(Nc1cccc(-c2nc3ccccc3[nH]2)c1)c1ccccn1,-1,-7,8,-5,8.9,-15,4410
CCC(C)NCCCCOc1ccc(C)cc1[N+](=O)[O-] (stereo not drawn),7,7,8,1,6.0,-21,20177*
Cc1ccc(S(=O)(=O)NCc2cn3ccsc3n2)c(C)c1,0,8,9,-3,-1.6,-2,.
N#CC1(c2ccccc2)CCCN1C(=O)c1ccccc1Cl (stereo not drawn),-7,.,.,12,2.5,-8,2757
Cc1cccc(OCCCC(=O)N2CCCCCC2)c1C,-2,5,6,-1,6.2,-62,3955
O=C(Oc1ccc(C=NNC(=O)c2ccccc2F)cc1)c1ccccc1,.,7,9,4,3.0,.,.
CC[C@H](C)[C@H](NC(=O)c1ccc(Cl)cc1)C(=O)OCC(=O)c1c(N)n(C)c(=O)n(C)c1=O,.,4,6,8,-0.9,-12,3644
CC(=O)n1cc([C@@H]2C=C(C(=O)NCc3ccccc3)O[C@H](OCc3ccc(CO)cc3)C2)c2ccccc21,-1,.,.,.,.,-7,4128
CC(On1c(-c2ccccc2)nc2ccc(Cl)cc21)C(=O)O (stereo not drawn),7,-10,7,2,4.9,2,2035
CCOC(=O)c1c(NC(=O)Cc2ccccc2)sc2c1CC(C)(C)NC2(C)C,8,1,5,5,-3.1,0,6000
Cc1ccc(-n2c(=O)cc(N3CC(C)OC(C)C3)[nH]c2=O)cc1 (stereo not drawn),0,1,6,5,6.5,-13,5553
Cc1ccc(NC(=O)CN(c2ccc(Cl)cc2)S(=O)(=O)c2cc([N+](=O)[O-])ccc2Cl)cc1,-6,5,4,-5,-11,-27,2485
COc1cccc(C2C(C#N)=C(N)OC(C(C)(C)C)=C2C#N)c1 (stereo not drawn),0,8,4,0,5.1,-5,2918
CC(C)(C)NC(=O)COC(=O)CCC(=O)c1cccs1,5,-4,4,-1,0.5,-8,4994
CC1CC(=O)c2c(cc3c(-c4c(O)cc(O)c5c(O)c6c(cc45)OC(C)CC6=O)c(O)cc(O)c3c2O)O1 (stereo not drawn),-11,.,.,11,35,-28,4577
CC1CN(C2CCN(C(=O)COc3ccccc3)CC2)CC(C)O1 (stereo not drawn),0,2,16,7,2.7,-37,3408
CC(=O)c1ccc(NC(=O)c2sc3nc4n(c(=O)c3c2C)CCCCC4)cc1,1,7,8,5,1.7,-8,5192
CCCCC(=O)Nc1ccc(NC(=S)NC(=O)CC)cc1OC,-23,12,3,2,2.7,-7,2038
CC(C)C(NC(=O)c1ccc2c(c1)OCO2)C(=O)N/N=C\c1ccco1 (stereo not drawn),4,.,.,.,.,-14,12806
Cc1c(C(=O)NNC(=O)c2ccncc2)oc2ccc(Br)cc12,-9,-10,-13,14,3.4,-21,3984
CCN(CC)S(=O)(=O)c1cccc(-c2nnc(SCC(=O)NC3CCCCCCC3)n2N)c1,-4,1,4,-4,5.2,-23,21228*
O=C(c1ccc(Cl)cc1)C(Cn1cncn1)C(Sc1ccccc1)c1ccccc1 (stereo not drawn),9,23,16,-9,-8.4,-9,3475
O=C(O)CCCC(=O)N1N=C(c2ccccc2)CC1c1cccs1 (stereo not drawn),7,4,-7,8,4.0,-16,5058
CC(=NNC(=S)Nc1ccc(C(C)C)cc1)c1ccc2c(c1)OCO2,.,6,2,5,23,.,.
CC(CCc1ccccc1)NC(=O)Cn1cccc1C(=O)c1ccccc1 (stereo not drawn),0,-2,8,3,-4.0,-6,5508

SMILES,BJeLR viability,Mtb hypoxia inh,Mtb hypoxia inh growth,Sa ugtP lethal,RN4220 kill,PrP 5UTR inh,Autofluor counter
COc1ccc(Cl)cc1NC(=O)COC(=O)CCCC1=NS(=O)(=O)c2ccccc2N1,4,3,8,15,-2.6,-18,6077
Cc1ccc(SCC(c2ccccc2)N2CCN(CC(C)C)CCC2=O)cc1 (stereo not drawn),.,3,6,-5,1.2,.,.
O=S(=O)(NCCc1ccccc1)c1cnc(Cl)c(Br)c1,3,0,0,1,7.9,-25,5646
COc1ccc(/C=C/CN2CCN(CC(C)C)C(CCO)C2)cc1 (stereo not drawn),-10,8,8,3,2.1,-21,3563
O=S(=O)(c1ccc(Cl)cc1)N1CCN(CCc2ccncc2)CC1,-1,-5,2,5,3.0,-14,3653
O=S(=O)(c1ccc(SCCOc2ccc(Cl)cc2)nc1)N1CCCC1,.,6,4,8,1.1,9,3720
O=C(CN1CCc2ccccc2C1)Nc1ccc(OC(F)(F)F)cc1,9,7,3,15,-9.8,-23,3199
Brc1ccccc1OCCCCN1CCCCC1,-6,8,16,4,2.0,-19,4185
Cc1cc(C(=O)NNC(=S)NCC2CCCO2)cs1 (stereo not drawn),0,-1,-4,6,1.3,-25,19574*
CCCC(C)c1nnc(NC(=O)C2CCCO2)s1 (stereo not drawn),-8,4,5,5,6.6,-16,9692
Cc1ccc(S(=O)(=O)c2c(N)n(C)c3nc4ccccc4nc23)cc1,1,.,.,-4,1.7,-20,4243
O=C(Nc1cccc2nsnc12)c1cccnc1Cl,-15,-3,10,1,5.4,-3,2642
CCOc1ccc(NC(=O)COC(=O)c2ccc3ncsc3c2)cc1OCC,.,12,5,-15,1.3,-19,6068
CCc1ccc(C(C)NC(=O)Cc2ccc(F)cc2)cc1 (stereo not drawn),3,5,5,4,-3.6,3,2835
O=C(NCCc1cn2ccccc2n1)c1cc(COc2c(F)cccc2F)on1,-2,-7,-7,0,-1.8,-14,3325
O=C(NCC(c1ccco1)N1CCc2ccccc21)C(=O)Nc1ccc(F)cc1F (stereo not drawn),15,7,3,15,-1.5,-102,?
COc1ccccc1CNC(=O)c1[nH]c(C)c(C(C)=O)c1C,-7,3,1,0,3.7,-22,4453
Cc1cccc(/C=C2\Oc3cc(OS(C)(=O)=O)ccc3C2=O)c1,-17,5,3,-14,-0.3,-16,2586
Cc1c(NC(=O)CSc2ccccc2C(=O)Nc2cccnc2)c(=O)n(-c2ccccc2)n1C,7,.,.,6,4.2,-14,3148
COC(=O)C1=C(C)N(C)C(=S)NC1c1ccc(OC)cc1OC (stereo not drawn),-9,3,-3,3,2.2,-21,2315
CCC(=O)Nc1cc(-c2nn(C)c(=O)c3ccccc23)ccc1N1CCCCC1,3,.,.,6,5.7,0,3552
Cn1c(N)c(C(=O)c2ccc(C#N)cc2)c(=O)n(C)c1=O,4,1,7,1,4.2,-15,2868
CC(=O)Nc1ccc(S(=O)(=O)NCC(=O)OCC(=O)c2cc(C)n(-c3ccc4c(c3)OCO4)c2C)cc1,-4,13,9,-5,4.1,9,1929
Cc1cc([N+](=O)[O-])nn1CC(=O)NCCCN1CCOCC1,2,-1,-2,5,2.5,-15,5595
CCCCn1c(N)c(N(CCOC)C(=O)C2CC(=O)N(c3ccc(CC)cc3)C2)c(=O)[nH]c1=O (stereo not drawn),.,2,4,5,-4.8,-16,8243
COCC(=O)NCCSc1c(C)[nH]c2ccccc12,-10,1,6,-5,1.5,-5,4630
CCCCCCn1nc(C(=O)N(CCCC)c2c(N)n(CCC)c(=O)[nH]c2=O)c2ccccc2c1=O,.,-4,9,-6,-3.7,-26,3798
COc1ccc(CNC(=O)N2CCN(S(=O)(=O)c3ccccc3)CC2)cc1,0,-6,-3,8,3.2,-9,3025
CCN1CCN(CC(=O)Nc2cc3c(cc2C(C)=O)OCO3)CC1,-5,-9,-1,1,-4.2,-21,4634
CN1CCN(C(c2cccc(C(F)(F)F)c2)c2nnnn2Cc2ccccc2)CC1 (stereo not drawn),-17,2,6,-5,-3.8,6,9096

SMILES,BJeLR viability,Mtb hypoxia inh,Mtb hypoxia inh growth,Sa ugtP lethal,RN4220 kill,PrP 5UTR inh,Autofluor counter
CCCCCCOC(=O)c1ccccc1N,4,.,.,14,5.1,-89,4592
COc1ccc(CNC2CCCC2)c(OC)c1OC,-5,.,.,-1,11,-14,3484
COC(=O)NN=Cc1ccc(OC(=O)c2ccco2)cc1,.,-4,2,2,3.8,.,.
CC(C)CC(=O)NC(=S)NNC(=O)c1ccc(NC(=O)C2CCCCC2)cc1,6,0,9,3,2.1,6,2693
COc1ccc(NC(=O)Cn2nnc(C(=O)NCCc3ccccc3)c2N)cc1,-5,-8,-1,-1,6.6,-7,2298
COc1ccccc1OCC(O)CN1CCOCC1 (stereo not drawn),12,7,7,16,4.4,-9,3530
CCOC(=O)C1=C(C)NC(C)=C(C(=O)OCC)C1c1cc2ccc(C)cc2[nH]c1=O,-8,5,6,2,3.7,-11,9091
Fc1ccc2cc(-c3ccccc3)ncc2c1,.,10,5,1,17,-74,2954
CC1CCC2(CC1)NC(=O)N(CC(=O)NCc1cccs1)C2=O (stereo not drawn),-6,1,6,11,-0.8,-11,2013
COc1cc(-c2nc(-c3ccccc3)c(-c3cccs3)[nH]2)cc(OC)c1O,-1,2,13,2,-5.8,-49,24448*
CCc1ccc(/C=C/C(=O)c2ccc(N3CCOCC3)cc2)cc1,8,6,9,-7,3.9,-25,3018
Cc1cccc(NC(=O)C(NS(=O)(=O)c2ccc3c(c2)CCC(=O)N3)c2ccccc2)n1 (stereo not drawn),-3,0,8,2,-2.8,-12,11413
Cc1cc(C(=O)NN=Cc2cc(Br)ccc2OC(=O)c2ccccc2)n[nH]1,.,7,-7,5,0.2,.,.
COc1ccc(CCN2CC(C(=O)NCCc3ccc(F)cc3)CCC2=O)cc1 (stereo not drawn),16,6,4,2,0.3,1,5640
COc1cccc(NC(=O)CN(C)C(C)C(=O)Nc2ccc(C(C)=O)cc2)c1 (stereo not drawn),-1,-1,-12,-12,2.3,-18,3525
CCN(CC)CCC(c1ccc(N(C)C)cc1)c1c(O)cc(OC)cc1OC (stereo not drawn),-1,10,12,-2,3.8,-22,3822
Cc1sc2ncnc(N(C)C3CCCCC3)c2c1C,-4,0,3,24,0.7,-22,3710
Cc1cc(-c2[nH]nc3c2C(c2cccc(O)c2)C(C#N)=C(N)O3)c(C)s1 (stereo not drawn),-6,0,-2,-6,4.7,-21,8154
CN(c1ccc(C(=O)Nc2cccnc2)cc1)S(=O)(=O)c1ccccc1,-3,11,7,15,6.1,-14,4132
CCOc1cc(C(=O)NCC(=O)N2CCC3(CC2)NCCc2[nH]cnc23)cc(OCC)c1OCC,-7,-1,1,12,5.8,-7,5885
COc1ccc(OC)c(C=NNC(=O)c2[nH]ncc2Br)c1,.,18,4,3,3.5,.,.
CSc1ccccc1C(=O)N1CCOCC1,-3,14,15,3,8.2,-8,2516

Reformatted: results already given.
Compound: COc1cc(-c2nc(-c3ccccc3)c(-c3cccs3)[nH]2)cc(OC)c1O
- BJeLR viability: -1
- Mtb hypoxia inh: 2
- Mtb hypoxia inh growth: 13
- Sa ugtP lethal: 2
- RN4220 kill: -5.8
- PrP 5UTR inh: -49
- Autofluor counter: 24448*
Compound: COc1cccc(C2C(C#N)=C(N)OC(C(C)(C)C)=C2C#N)c1 (stereo not drawn)
- BJeLR viability: 0
- Mtb hypoxia inh: 8
- Mtb hypoxia inh growth: 4
- Sa ugtP lethal: 0
- RN4220 kill: 5.1
- PrP 5UTR inh: -5
- Autofluor counter: 2918
Compound: COc1ccc(CNC2CCCC2)c(OC)c1OC
- BJeLR viability: -5
- Mtb hypoxia inh: .
- Mtb hypoxia inh growth: .
- Sa ugtP lethal: -1
- RN4220 kill: 11
- PrP 5UTR inh: -14
- Autofluor counter: 3484
Compound: O=C(Nc1cccc2nsnc12)c1cccnc1Cl
- BJeLR viability: -15
- Mtb hypoxia inh: -3
- Mtb hypoxia inh growth: 10
- Sa ugtP lethal: 1
- RN4220 kill: 5.4
- PrP 5UTR inh: -3
- Autofluor counter: 2642

Bioassay records (PubChem)

This is a random part of the collection (roughly 4% active in at least one column).
